# High-throughput results deposited in PubChem by several laboratories.
# Mtb hypoxia inh: reduces hypoxia-regulated biosensor signal in M. tuberculosis; M. tuberculosis hypoxia-regulated fluorescent reporter, fluorescence; fluorescence inhibition, % (no concentration beside the values); hit rate 0.1% among 300,000; AID 1159583;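 active means 35 to 45% if threefold the growth effect, above 45% if 1.5-fold the growth effect; inactive means the rest, general growth blockers included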;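 further: wells of about 50 µL received 100 nL stock; 0% = vehicle wells and 100% = reference inhibitor wells; whole bacteria with a GFP reporter of the hypoxia response; strong numbers were not always called active; many hits fall short of the cut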
# RN4220 kill: S. aureus RN4220 growth inhibition. OD600, 16 h. inhibition, % (no concentration beside the values). hit rate 0.33% among 330,000. AID 1259311;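 active means z-score of -3 or lower and OD600 up to 0.18 on both plates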;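 further: plate controls were untreated cells for no effect and reference antibiotic for full effect; stock transfer was 100 nL into about 80 µL; one replicate is shown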
# Sa ugtP lethal: kills S. aureus RN4220 lacking UgtP; S. aureus RN4220 ugtP deletion, OD600 growth, 16 h; some inactives read as strong as hits; growth inhibition, % (no concentration beside the values); hit rate 0.54% among 330,000;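 active means z-score under -3 and OD600 up to 0.15 on both plates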;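 further: plate controls were untreated wells for no effect and antibiotic for full effect; wells of about 80 µL received 100 nL stock; the first replicate is given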
# Bead autofluor: counter-screen for toxin protease inhibitors: compound fluorescence; compound autofluorescence counterscreen, microsphere flow cytometry; hits give high values; fluorescence intensity (no concentration beside the values); hit rate 3.1% among 360,000;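 active means at least 3 SD above the mean of all compounds, about 16000 in these data; inconclusive means too few beads counted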;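 further: 100 nL of 1 mM stock went into each well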
# BJeLR lethal: BJeLR cell viability loss. inhibition, % (test concentration not listed). AID 1554. BJeLR (HRASV12) viability, CellTiter-Glo ATP luminescence, 48 h; reference of the scale not given here. hit rate 0.17% among 300,000;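 active means replicate mean above 50%; inconclusive means above 50% but judged a plate artefact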;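 further: 50 nL library stock added to about 25 µL; numbers are from one replicate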
# PrP UTR inh: inhibition of PrP 5' UTR reporter expression; inhibition, % (no concentration beside the values); cell-based PrP 5' UTR mRNA reporter, plate reader; hit rate 0.35% among 340,000;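 active means every replicate at 50% or more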;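 further: 0 = median of the neutral control wells; tested in H4 reporter cells; numbers are from one replicate; inactives centre near -14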
# Mtb hypoxia inh growth: also measured in Mtb hypoxia inh; calls as there; growth inhibition, %; measured here: M. tuberculosis growth (absorbance);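 0% = vehicle and 100% = reference antibiotic; read after six days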
# An asterisk follows results filed as active; ? = inconclusive; / = no result given. Hits appear at their usual frequency; about 4% have a hit in one of these screens.
SMILES,Mtb hypoxia inh,Mtb hypoxia inh growth,RN4220 kill,Sa ugtP lethal,Bead autofluor,BJeLR lethal,PrP UTR inh
COc1ccc(NC(=O)CCN2C(=O)C3CC=C(Cl)CC3C2=O)cc1 (stereo not drawn),9,11,4.5,8,2248,2,-11
COC(=O)/C=C1/N/C(=N\c2nc(C)cc(C)n2)N(c2ccc(C)c(C)c2)C1=O,/,/,-0.2,-8,2871,-4,-23
Cc1ccc2oc(=O)c3cnn(CC(=O)N4CCc5ccccc5C4)c3c2c1,/,/,3.6,8,4572,2,-15
NNc1nc2c(F)cccc2s1,-8,-2,3.9,-2,2347,-9,-32
COCCCn1c(SCC(=O)Nc2ccccc2F)nnc1-c1ccoc1C,15,-5,2.1,2,2914,6,-18
CC(=N\NC(=O)c1ccc([N+](=O)[O-])cc1)/C(=N/O)C(=O)Nc1ccccc1,/,/,/,/,5306,4,-16
O=P(Oc1ccccc1)(Oc1ccccc1)N1CCN(c2ccc(F)cc2)CC1,12,7,4.0,6,5378,3,-24
COc1cccc(NC(=O)c2cnc(SC)nc2)c1,-3,15,-4.2,1,3990,-2,-23
Cc1ccc(CNC(=O)COc2ccc(S(=O)(=O)N3CCCC3)cc2)cc1,-7,-1,1.8,18,3786,0,-15
O=C(O)c1cccc(NC(=NS(=O)(=O)c2ccccc2)c2ccccc2)c1,0,4,3.0,1,/,/,/
Cc1ccc(OCc2nnc(NC(=O)c3cccnc3)s2)cc1,1,8,7.8,20,6163,-7,-17
CCOc1ccc(OCCC(=O)OCC(=O)N2CCN(c3ccc(OC)cc3)CC2)cc1,0,2,2.0,7,5800,1,1
Cc1c(C(=O)N(Cc2ccccc2)C(C)C)cnn1-c1ccccc1,7,12,2.4,3,5319,1,-29
CC(=O)N1CCC(C(=O)NC2CC(C)(C)Cc3c2cnn3-c2ccc(F)cc2)CC1 (stereo not drawn),2,-8,2.3,9,5384,2,-7
N#CC(C(=O)NCCc1ccccc1)c1nc2ccccc2nc1N1CCOCC1 (stereo not drawn),0,1,8.7,-4,3571,8,-9
COc1cccc2cc(C(=O)NCCN3CCOCC3)c(=O)oc12,-4,-15,2.4,2,2912,-5,-14
NC(N)=NS(=O)(=O)c1ccc(N=C2C(=O)Nc3ccccc32)cc1,15,5,1.4,6,4493,-12,-12
Cc1ccc(C(=O)N2CCN(c3ncnc4c3cnn4-c3ccccc3)CC2)cc1,/,/,2.2,4,2674,11,2
O=C(c1sc2ccccc2c1Cl)N(Cc1ccco1)C1CCS(=O)(=O)C1 (stereo not drawn),7,-1,1.8,4,23946*,1,-5
Clc1ccc2c(c1)C(N1CCNCC1)Cc1ccccc1S2 (stereo not drawn),15,18,13,-16,3399,8,-18
COc1ccc(OC)c(C(=O)N2CCC(C(=O)c3ccc(F)cc3)CC2)c1,-8,-10,1.5,4,9261,-5,-12
O=C(CC1C(=O)NCCN1Cc1cccc(Oc2ccccc2)c1)NCCc1ccccn1 (stereo not drawn),-4,2,9.2,9,3161,-9,11
COc1ccc(NS(=O)(=O)c2c(F)cccc2F)cc1S(=O)(=O)N1CCOCC1,-2,3,3.0,0,4039,/,-14
CC(C)OCCCNC(=O)c1cc(Sc2ccc(F)cc2)nc2ccccc12,15,5,2.2,21,9661,9,-26
Cc1cc(C)nc(N2CCC(C(=O)Nc3ccc4c(c3)OCCO4)CC2)n1,3,10,13,-1,3392,3,-22

# (continued)
SMILES,Mtb hypoxia inh,Mtb hypoxia inh growth,RN4220 kill,Sa ugtP lethal,Bead autofluor,BJeLR lethal,PrP UTR inh
Cc1ccc(C)c(N2CCN(CCCNC(=O)CCn3c(=O)c4cccn4c4cccnc43)CC2)c1,2,2,1.4,-7,5018,4,0
CCOC(=O)CCCCCC(=O)Nc1ccc2c(c1)C(=O)N([C@H](C)CO)C[C@H](C)[C@@H](CN(C)C(=O)Nc1ccc(OC)cc1)O2,-5,5,5.7,5,2994,/,-14
COC(=O)c1c(C)[nH]c(C(=O)COc2ccc3ccc(=O)oc3c2)c1C,2,0,3.4,5,4089,/,/
CCOc1ccc(C(=O)N2CCc3ccccc32)cc1,-1,14,1.6,1,4300,9,-75
Cc1cc(=O)oc(C)c1C(=O)OC(C(=O)c1ccccc1)c1ccccc1 (stereo not drawn),19,-1,4.1,10,2655,16,-28
CCn1c(C)nc2cc(C(=O)NNC(=O)Nc3ccc(Cl)cc3)ccc21,18,5,2.4,7,3417,-5,-4
CC(C)(C)C1=Nn2c(nnc2C2CCCCC2)SC1,12,6,4.2,0,8242,-6,-11
C=C(C)CC(NCc1ccco1)c1ccc(OC)cc1 (stereo not drawn),/,/,3.1,-7,2386,-8,0
CN=c1scc(-c2cccs2)n1/N=C/c1ccccc1O,/,/,/,/,2999,21,94*
Cc1cc(-c2ccccc2)oc(=O)c1NC(=O)c1ccccc1,2,-9,-3.6,-7,4527,-1,-21
CCN(CC(=O)Nc1ccc(OC)cc1)C(=O)Cc1cccs1,7,0,1.4,-1,4497,9,-2
Cc1[nH]nc2c1C(C(C)c1ccccc1)C(C#N)=C(N)O2 (stereo not drawn),-6,3,1.0,39,4690,-5,-2
O=C(CCCCCn1c(=S)[nH]c2ccsc2c1=O)NC1CCCCC1,-6,12,-0.8,-4,5439,-7,-18
C=CCNC(=O)C1CCN(c2cc(C)nc(-c3ccccc3)n2)CC1,5,11,-1.1,7,2472,5,-9
CC(=C1SC(=S)N(CCC(=O)O)C1=O)c1ccc(O)cc1,-2,1,1.5,-3,/,/,/
COc1cc(OC)c(OC)cc1CNC1CCCCCC1,9,11,3.8,3,18257*,-5,-4
O=C(Nc1ccccc1)Nc1cc(OCC(F)(F)F)cc(OCC(F)(F)F)c1,-8,-1,90*,94*,2271,24,-12
O=C(Nc1c(F)cc(F)cc1Br)c1cc(-c2ccc(O)cc2)on1,-6,8,-6.9,-5,5584,9,-8
CCOc1ccc(S(=O)(=O)N/N=C(\C)Cc2ccc(OC)cc2)cc1,/,/,/,/,4161,-1,-5
Cc1c(C(C)O)nnn1-c1nonc1N (stereo not drawn),/,/,-0.7,4,4290,11,-24
CCO/C=C1/C(=O)N(C)C(=O)c2cc(OC)ccc21,/,/,-0.1,11,3207,4,-2
COc1ccc(N(C(=O)c2ccncc2)S(=O)(=O)c2ccc(F)cc2)cc1,/,/,/,/,13553,8,-6
O=C(Nc1ccccn1)c1sc2cccc(F)c2c1Cl,-8,0,9.7,7,4467,/,-35
COC(=O)c1sccc1NC(=O)CSc1cc(Cl)ccc1Cl,/,/,5.8,11,2200,-12,-5
Clc1cccc(OCCOCCN2CCNCC2)c1Cl,11,3,2.1,4,4185,1,/

# Next entries.
SMILES,Mtb hypoxia inh,Mtb hypoxia inh growth,RN4220 kill,Sa ugtP lethal,Bead autofluor,BJeLR lethal,PrP UTR inh
O=C(N/N=C/c1ccc(Cl)cc1)c1n[nH]c2c1CCCC2,/,/,/,/,6298,49,46
CN(Cc1ccccc1)C(=O)CCn1c(=O)oc2ccccc21,3,-1,2.4,14,4954,-1,-11
Cc1noc(C)c1S(=O)(=O)N1CCCC(C(=O)N2CCC(C)CC2)C1 (stereo not drawn),/,/,-0.4,-1,4333,-4,-7
CCN(CC)c1ccc(N2C(=NC(=O)C3CC3)SC3CS(=O)(=O)CC32)cc1 (stereo not drawn),6,0,5.4,13,4338,5,-5
O=C(CN1C(=O)C(=O)c2ccccc21)OCN1C(=O)c2ccccc2C1=O,9,2,6.8,-3,4087,0,-8
Cc1sc(NC(=O)C2CC=CCC2C(=O)O)c(C(=O)OC(C)C)c1C (stereo not drawn),-7,4,12,-6,9612,-18,-11
Cc1cc(N2CCCC2=O)cc(C)c1S(N)(=O)=O,12,7,0.4,2,9352,-4,-24
O=C(NCc1cccs1)C1CCCN1C(=O)Nc1cccc(Cl)c1 (stereo not drawn),4,6,3.3,2,2677,-1,-23
O=C(O)CCC(=O)Nc1ccc(Br)c(Cl)c1,14,6,10,-7,2411,9,-13
CCN(CC(=O)Nc1c(F)cccc1F)C(=O)c1cccnc1SC,-11,-9,2.9,3,6468,0,-17
CSc1ccccc1C(=O)Nc1ccccc1C,-1,5,2.6,7,2431,1,-15
CCOc1cc(/C=C/C(=O)OCC(=O)NCCN2C(=O)CSC2=O)ccc1OCC(C)C,9,3,5.2,9,3212,/,-19
CC1CC(C)CN(CCCNC(=O)CN2C(=O)c3cccnc3Oc3ccccc32)C1 (stereo not drawn),4,7,1.0,3,5935,-15,8
Cc1ccc(C)c(NC(=O)Nn2cnnc2)c1,0,-8,3.3,17,5205,-1,-3
O=C(NNC(=O)c1ccc(O)c(Cl)c1)c1cccc(S(=O)(=O)N2CCOCC2)c1,14,-1,3.2,13,4761,3,-35
CNc1c(NS(=O)(=O)c2ccc(Cl)cc2)c(=O)oc2ccccc12,-6,10,5.4,-3,3799,-1,-6
O=C1C(=Cc2cccs2)Oc2ccccc21,15,8,7.2,0,3440,/,-7
CCOC(=O)N1CCN(C(=O)c2ccc3c(c2)NC(=O)/C(=C\c2cccc(C)c2)S3)CC1,-1,-11,-1.9,-22,4491,2,-4
CC(=O)OC(C(=O)NC1CCCCC1)c1ccc(Cl)cc1 (stereo not drawn),11,13,-3.1,-4,3912,14,9
COc1ccccc1N1CCN(C(=O)Cn2c(=O)[nH]c3ccsc3c2=O)CC1,11,10,2.4,6,4088,1,-8
COc1ccc(/C=N/NC(=O)c2cc(-c3cccc(C)c3)nc3ccccc23)cc1O,/,/,/,/,6322,-1,-13
O=C(Cc1ccc(Cl)cc1)NC(=S)Nc1ccccc1N1CCOCC1,0,0,-11,12,10983,/,-21
Cc1ccc(C(=O)Oc2ccc(N3C(=O)CCC3=O)c(C)c2)cc1,-2,6,1.6,9,3288,-3,-17
O=C(Nc1ccccc1)C1C2/C=C\CCCCC21 (stereo not drawn),-5,-8,-3.0,-14,2106,-3,-30
O=C1NC(=O)C(Cc2ccc(Cl)cc2)(c2ccccc2)N1 (stereo not drawn),21,12,3.9,-2,3560,/,4

# In another format: results already given.
molecule	Mtb hypoxia inh	Mtb hypoxia inh growth	RN4220 kill	Sa ugtP lethal	Bead autofluor	BJeLR lethal	PrP UTR inh
CNc1c(NS(=O)(=O)c2ccc(Cl)cc2)c(=O)oc2ccccc12	-6	10	5.4	-3	3799	-1	-6
CCOC(=O)N1CCN(C(=O)c2ccc3c(c2)NC(=O)/C(=C\c2cccc(C)c2)S3)CC1	-1	-11	-1.9	-22	4491	2	-4
COc1ccccc1N1CCN(C(=O)Cn2c(=O)[nH]c3ccsc3c2=O)CC1	11	10	2.4	6	4088	1	-8
CC(=O)OC(C(=O)NC1CCCCC1)c1ccc(Cl)cc1 (stereo not drawn)	11	13	-3.1	-4	3912	14	9

# Remaining list, next part:
SMILES,Mtb hypoxia inh,Mtb hypoxia inh growth,RN4220 kill,Sa ugtP lethal,Bead autofluor,BJeLR lethal,PrP UTR inh
C[C@@H](NC(=O)[C@@H]1Cc2ccccc2CN1C(=O)OC(C)(C)C)C(=O)NC1CCCCC1,-4,5,-3.8,-1,5366,5,-12
CC(=O)Nc1ccc(NC(=O)CSc2ncc(C(=O)Nc3ccc(F)cc3)c(=O)n2C)cc1,10,1,2.6,7,?,-10,-27
C/C(=N\Nc1ccc(Cl)c(C(=O)O)c1)c1ccc(Br)s1,/,/,/,/,3422,-4,-19
COCCN(C(=O)CSc1ncccn1)c1c(N)n(Cc2ccccc2)c(=O)[nH]c1=O,6,-8,5.3,11,?,0,-10
Cc1ccc(NC(=O)C2(S(=O)(=O)c3ccc(C)cc3)CC2)cc1,0,-2,1.5,-1,11008,14,-17
O=C(COC(=O)c1ccc(S(=O)(=O)Nc2ccccc2)cc1)NCCC1=CCCCC1,13,0,5.9,-17,2569,-11,-20
CC(NC(=O)c1ccc(S(C)(=O)=O)cc1)c1cccc2ccccc12 (stereo not drawn),13,4,-4.1,7,5614,-2,-28
COc1ccc(C(=O)n2cnc(N)n2)cc1,-1,-1,1.3,2,9692,-9,-9
CCOc1ccc(/C=C/C(=O)c2ccc(-c3ccccc3)cc2)cc1,0,3,5.5,14,1991,-8,-5
N#CC(C(=O)O)=C1CCCC1,/,/,-3.0,-5,2680,1,13
Cc1c(NC(=O)/C=C/c2cccs2)c(=O)n(-c2ccccc2)n1C,5,3,2.9,-2,22938*,-2,-20
COc1ccc(S(=O)(=O)Nc2ccc3ccccc3c2)cc1C,9,8,-1.1,20,25259*,11,-15
